Pol III holo inh = blocks replication by bacterial DNA polymerase III holoenzyme | reconstituted DNA polymerase III holoenzyme replication, biochemical | Potency, µM (doses to about 57.1 µM), without a hit: at the highest dose activity change, negative = inhibition | 71,000 tested, 0.25% active; note: potency is the fitted concentration of half-maximal effect; % is set by controls: 0 for no effect and ±100 for the full control effect
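Reconstituted *E. coli* holoenzyme (0.35 nM Pol III, 1 nM beta, 154 nM SSB, 2 nM primase) was preincubated with compound for 15 min at RT. Synthesis on 1.4 nM ssM13Gori ran 35 min, then was stopped with PicoGreen/EDTA and read as dsDNA fluorescence.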
TexasRed autofl = compounds fluorescent in Texas Red spectral region; Compound fluorescence, Texas Red channel, 547/618 nm; hits give high values; max dye-equivalent concentration, M; 59,000 tested, 0.06% active; AID 587; in the data active = max dye-equivalent concentration above about 10 nM; inconclusive = between about 1.1 nM and that limit
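Fluorescence at ex 547/em 618 nm, normalized against an on-plate Texas Red standard series to give dye-equivalent concentration per compound concentration. Buffer 100 mM Tris, pH 8.0; 15 min RT incubation before CCD imaging.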
Epigenetic mod = epigenetic GFP locus derepression in mouse cells; mouse C127i GFP locus derepression, cytometry, 30 h; 68,000 tested, 0.09% active; Potency, µM (titrated, usually from 46.1 µM), without a hit: top-dose GFP derepression (activation); note: % of control where 0% means no effect
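Derepression screen: silenced CMV-GFP reporter in murine C127i cells, 30 h compound incubation at 37 C, washed cells imaged by laser-scanning cytometer to enumerate GFP-expressing objects of 20 to 120 um.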
15-hLO inh = blocks human 15-lipoxygenase activity; P16050; purified 15hLO-1, xylenol orange hydroperoxide absorbance; Potency, µM (highest dose often 57.1 µM), without a hit: top-dose activity change, negative = inhibition, usual class: inhibitors; 74,000 tested, 1.4% active; AID 887; note: potency is the fitted concentration of half-maximal effect; % is set by controls: 0 for no effect and ±100 for the full control effect; nearly all actives have a fitted effect of over 55% in size
Target sequence (P16050 whole entry, looked up): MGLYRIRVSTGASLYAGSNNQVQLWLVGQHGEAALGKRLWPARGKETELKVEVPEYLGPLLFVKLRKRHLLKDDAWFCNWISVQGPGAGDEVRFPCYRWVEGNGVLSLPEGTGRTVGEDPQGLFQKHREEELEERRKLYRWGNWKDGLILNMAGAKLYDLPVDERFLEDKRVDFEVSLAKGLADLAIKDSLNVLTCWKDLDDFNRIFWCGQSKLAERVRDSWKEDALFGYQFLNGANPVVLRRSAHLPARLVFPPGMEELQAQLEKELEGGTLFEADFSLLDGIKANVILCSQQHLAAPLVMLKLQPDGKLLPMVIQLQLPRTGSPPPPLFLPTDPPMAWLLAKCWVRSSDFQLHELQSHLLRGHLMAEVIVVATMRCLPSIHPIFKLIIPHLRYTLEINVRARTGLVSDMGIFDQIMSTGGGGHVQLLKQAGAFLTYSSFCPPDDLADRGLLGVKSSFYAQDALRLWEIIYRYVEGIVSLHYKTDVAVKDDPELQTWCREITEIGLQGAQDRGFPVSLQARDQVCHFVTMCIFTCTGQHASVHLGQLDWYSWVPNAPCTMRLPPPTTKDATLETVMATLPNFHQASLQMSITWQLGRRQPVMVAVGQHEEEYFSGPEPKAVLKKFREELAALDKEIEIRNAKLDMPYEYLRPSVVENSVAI
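Inhibition is scored from a chromogenic endpoint. After 15 min enzyme-compound contact, arachidonic acid (50 uM final) reacts 6 min with 40 nM 15hLO-1 at room temperature, then Fe-XO reagent is added for 30 min and absorbance ratio recorded.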
Ub-GFP proteasome = ubiquitin-GFP accumulation via proteasome inhibition; Ubiquitin-GFP reporter cells, proteasome inhibition, GFP fluorescence; response scale: untreated = 0%, 10 µM MG-132 = 100%; 67,000 tested, under 10 active; AID 526; Potency, µM (titrated, usually from 45.9 µM), for the others: at the highest dose activation (GFP accumulation), most hits filed as activators; active = well fitted activation curve with a large enough effect, not every such curve was filed as active; inconclusive = small, poorly fitted or top-dose-only effect, or another doubt; inactive = no such curve, though single readings can be large or run the other way; note: potency is the fitted concentration of half-maximal effect
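U2OS cells expressing ubiquitin(G76V)-GFP, seeded overnight in 0.5% FBS medium, then treated 4 hr at 37 C across 46 uM to 2.9 nM. GFP-positive cells counted by laser cytometry (488 ex/515 em); %activity scaled between basal and 10 uM MG-132.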
Fluorescein fluor = fluorescein region autofluorescence; Compound autofluorescence, 480/540 nm, fluorescein-equivalent; hits give high values; 59,000 tested, 0.91% active; max fluorescein-equivalent concentration, M; AID 593; in the data active = max fluorescein-equivalent concentration above about 10 nM; inconclusive = between about 1.1 nM and that limit
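Compounds were pin-transferred into 100 mM Tris buffer, pH 8.0, and incubated 15 min at room temperature. Fluorescence was read at 480 nm excitation/540 nm emission. Signals were normalized to an on-plate six-point fluorescein standard curve as dye-equivalent concentration.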
Rhodamine autofl = compound fluoresces in the rhodamine spectral region | Rhodamine-region fluorescence, 547/598 nm, Tris buffer; hits give high values | AID 594 | max dye-equivalent concentration, M | 59,000 tested, 0.05% active; in the data active = max dye-equivalent concentration above about 11 nM; inconclusive = between about 1.1 nM and that limit
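Steps: pin-transfer compounds into pH 8.0 Tris (100 mM), hold 15 min at room temperature, image with a 547/598 nm filter pair, and convert intensities to rhodamine-equivalent concentration using a six-point on-plate rhodamine series.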
HBB splice mod = alters splicing of the hemoglobin beta chain; HBB splicing reporter cell assay, activation; EGFP reporter with mutant IVS2-654 intron; response scale: normalised to 500 nM splice-correcting PNA; 65,000 tested, 0.06% active; AID 925; Potency, µM (highest dose often 46.1 µM), for the others: at the highest dose activation, most hits filed as activators; note: potency is the fitted concentration of half-maximal effect; 0% is about no effect
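Compounds were applied for 2 days to HeLa EGFP-654 cells, 500/well in Optimem with 2% FCS. The reporter's EGFP is disrupted by mis-splicing of beta-globin intron IVS2-654. Readout: summed well GFP fluorescence from 488 nm laser scanning; reference was 500 nM antisense […] 654 PNA.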
* marks the source's active call; other numbers are inactive results; i = inactive; ? = inconclusive; / = no result given; [ ] = dose if it differs, or a comment. Unless noted, calls come from the whole dose curve; as a rule, active = well fitted curve in the direction sought with a large enough effect; inconclusive = small, poorly fitted or top-dose-only effect, or another doubt; inactive = no such curve, though single readings can be large; an effect the other way counts as inactive or inconclusive. The list is partial. The share of hits here may be higher or lower than overall.

SMILES	Pol III holo inh	TexasRed autofl	Epigenetic mod	15-hLO inh	Ub-GFP proteasome	Fluorescein fluor	Rhodamine autofl	HBB splice mod
COC(=O)c1nnn(-c2nc(N3CCCCC3)nc(N3CCCCC3)n2)c1C	4%	?	14%	2%	2%	i	i	-1.8%
CCOC(=O)Nc1cccc(Nc2ccccc2)c1	-4%	i	3%	-2%	2%	i	i	0.0%
CCc1nc(N2CCN(c3nc(C)cc(C)n3)CC2)c2oc3ccccc3c2n1	-6%	?	4%	-1%	-4%	i	i	-0.6%[0.369 µM]
Cc1cc(C)c(-c2cc(C(=O)Nc3c(C)n(C)n(-c4ccccc4)c3=O)[nH]n2)c(O)c1	4%	i	-4%	2%	8%	i	i	0.7%
Cc1nn(-c2ccccc2)c2[nH]c(=O)c(CNCCN3CCOCC3)cc12	-3%	?	0%	-22%	5%	?	i	-0.1%[57.5 µM]
CCCCOc1ccccc1-c1cc(C(=O)O)[nH]n1	-6%	i	0%	17%	?	?	i	-3.4%
O=C(Nc1ccc2c(c1)OCO2)c1cnn2cccnc12	-5%	i	-3%	-7%	13%	i	i	-0.4%
COc1ccc(S(=O)(=O)N2CCC(C(=O)NCCC3=CCCCC3)CC2)cc1OC	1%	/	-2%	-6%	-3%	/	/	-4.5%
Cc1nn2c(CN(C(=O)c3ccco3)c3ccccc3)nnc2c2ccccc12	4%	?	7%	6%	2%	i	i	-2.8%
O=C1CC(c2ccccc2)CC(O)=C1C=NCCCN1CCOCC1 (centres undefined)	-6%	i	8%	-5%	5%	i	i	0.6%
CC1CCc2c(sc3ncnc(SCC(=O)N4CCN(C(=O)c5ccco5)CC4)c23)C1 (centres undefined)	-3%	i	1%	-3%	-10%	i	i	-1.6%
Cc1ccc(OCc2nnc(SCC(=O)Nc3cc(C)on3)n2C)cc1	-4%	i	-1%	2%	-2%	i	i	7.7%
O=C(CNC(=O)c1ccc(Cl)cc1)NCCCn1ccnc1	4%	i	2%	17%	1%	i	i	0.0%[57.5 µM]
O=Nc1c2nc3ccccc3n(O)c-2c2ccccc12	-27%	i	1%	-12%	-13%	?	i	4.7%
c1ccc(Cc2nc(-c3ccccn3)no2)cc1	2%[11.4 µM]	/	-2%	7%[11.4 µM]	4%[9.17 µM]	/	/	-1.5%[0.0738 µM]
CCOc1ccccc1CN(Cc1ccco1)S(=O)(=O)c1ccc(-n2cnnn2)c(OC)c1	-3%	i	-1%	-6%	-1%	i	i	/
CCNS(=O)(=O)c1ccc(NC(=O)c2cc(C(F)(F)F)nn2C)cc1	-5%	i	0%	-4%	0%	?	i	11%[0.369 µM]
CCOC(=O)C1CCCN(c2nc3ccccc3nc2C(C#N)C(=O)NCc2ccccc2)C1 (centres undefined)	10%	i	28%	6%	-7%	8.6e-07M*	i	-1.0%[57.5 µM]
CC1(C)CC(=O)C(C=NCC2CCCO2)=C(O)C1 (centres undefined)	2%[11.4 µM]	/	3%	10%[11.4 µM]	5%[9.17 µM]	/	/	2.4%[0.0738 µM]
Cc1cc(C)c(C#N)c(SCC(=O)Nc2ccccc2C(N)=O)n1	-5%	i	8%	-2%	3%	i	i	1.5%[57.5 µM]
C#CCNc1nc(CC)nc2c1nnn2Cc1ccccc1F	-2%	i	-1%	-3%	-6%	i	i	/
Fc1cccc(Cl)c1CSc1ncn[nH]1	4%	/	2%	1%	7%	/	/	-1.9%
O=C(O)c1cc(-c2ccccc2Cl)n[nH]1	-2%	i	2%	5%	2%	?	i	0.1%
Cn1c(=NC(=O)CSCC(=O)N2CCOCC2)sc2ccccc21	-5%	i	0%	17%	12%	i	i	7.7%
O=C1Nc2c(c(=O)[nH]c(=O)n2-c2ccccc2)C1(Nc1ncccn1)C(F)(F)F (centres undefined)	3%	i	3%	12%	7%	?	i	-0.9%
COc1ccc2cc(C(=O)NCc3ccco3)c(=Nc3ccc(C(=O)O)cc3)oc2c1	-8%	?	-3%	?	9%	?	i	-2.9%
Cc1cc(C)c(S(=O)(=O)Nc2cccc(C(F)(F)F)c2)c(C)c1	2%	/	0%	-2%[25.6 µM]	3%	/	/	/
O=C(Nc1sccc1C(=O)N1CCOCC1)c1cccnc1	2%	i	3%	-13%	-3%	i	i	3.3%
CCCOc1ccc(C(=O)NCCCn2ccnc2)cc1	-6%	i	1%	6%	4%	i	i	-5.1%
CCOc1ccc(CSC2=NCCN2)cc1Cl	-4%	i	8%	10%	5%	i	i	/
Clc1ccccc1-c1ccc2ncnc(NCCN3CCOCC3)c2c1	-2%	i	-5%[9.22 µM]	-2%	2%	?	i	-0.4%
CCCC(=O)Nc1nn(C)c2nc3c(C)cccc3cc12	-2%	i	-2%	1%	-4%	i	i	2.5%[1.84 µM]
CC(=O)N1CCC(=O)N(C(C)C)c2ccccc21	3%	i	0%	3%	-13%	i	i	-3.4%
COc1ccc(NC(C)=O)cc1NC(C)C(=O)Nc1ccccc1F (centres undefined)	7%	?	0%	14%	4%	i	i	0.6%[57.5 µM]
COc1cc2sc(C)nc2c2sccc12	-6%	i	2%	4%	3%	i	i	8.9%[0.369 µM]
CC(C)(C)NC(=O)CSc1ncnc2c1nnn2Cc1ccccc1Cl	-1%	i	-3%	-22%	0%	?	i	/
O=C(Nc1ccc2oc(=O)ccc2c1)c1ccco1	-1%	?	0%	2%	1%	i	i	/
Fc1ccccc1Cn1nnc2c(NCc3ccccn3)ncnc21	1%	i	-3%	9%	-1%	i	i	/
CC(C)C(C(=O)N1CCOCC1)N1C(=O)c2ccccc2C1=O (centres undefined)	-1%	i	4%	7%	-1%	i	i	0.0%[57.5 µM]
COc1ccc(C(=O)Nc2nnc(-c3ccccc3)o2)cc1OC	-2%	i	4%	17%	-1%	i	i	7.1%[0.369 µM]

For reference, part of the list above:
SMILES	Pol III holo inh	TexasRed autofl	Epigenetic mod	15-hLO inh	Ub-GFP proteasome	Fluorescein fluor	Rhodamine autofl	HBB splice mod
CCCC(=O)Nc1nn(C)c2nc3c(C)cccc3cc12	-2%	i	-2%	1%	-4%	i	i	2.5%[1.84 µM]
CC(=O)N1CCC(=O)N(C(C)C)c2ccccc21	3%	i	0%	3%	-13%	i	i	-3.4%
COc1ccc(NC(C)=O)cc1NC(C)C(=O)Nc1ccccc1F (centres undefined)	7%	?	0%	14%	4%	i	i	0.6%[57.5 µM]
COc1cc2sc(C)nc2c2sccc12	-6%	i	2%	4%	3%	i	i	8.9%[0.369 µM]
CC(C)(C)NC(=O)CSc1ncnc2c1nnn2Cc1ccccc1Cl	-1%	i	-3%	-22%	0%	?	i	/
O=C(Nc1ccc2oc(=O)ccc2c1)c1ccco1	-1%	?	0%	2%	1%	i	i	/
Fc1ccccc1Cn1nnc2c(NCc3ccccn3)ncnc21	1%	i	-3%	9%	-1%	i	i	/
CC(C)C(C(=O)N1CCOCC1)N1C(=O)c2ccccc2C1=O (centres undefined)	-1%	i	4%	7%	-1%	i	i	0.0%[57.5 µM]
COc1ccc(C(=O)Nc2nnc(-c3ccccc3)o2)cc1OC	-2%	i	4%	17%	-1%	i	i	7.1%[0.369 µM]

Other entries follow:
SMILES	Pol III holo inh	TexasRed autofl	Epigenetic mod	15-hLO inh	Ub-GFP proteasome	Fluorescein fluor	Rhodamine autofl	HBB splice mod
CCOc1ccc(NC(=O)c2cnsn2)cc1	-1%	i	0%	1%	1%	?	i	0.0%
CC(=O)c1ccc(N2CCN(C(=O)c3cc(C)on3)CC2)cc1	-1%	i	-3%	2%	8%	i	i	2.6%
O=C1N2CCCc3cccc(c32)C12Nc1ccccc1S2 (centres undefined)	-4%	i	0%	5%	-1%	i	i	-1.4%
CC(=O)c1ccc(NC(=O)CSc2nnc(-c3ccoc3C)n2Cc2ccccc2)cc1	-5%	i	-4%	1%	0%	?	i	/
CS(=O)(=O)N1CCc2cc(C(=O)OCC(=O)c3ccccc3)ccc21	-8%	?	3%	-5%	-3%	i	i	0.4%[57.5 µM]
O=C(CSc1ncn(-c2ccccc2)n1)Nc1nc2c(s1)CCCC2	-5%	i	0%	?	0%	?	i	0.2%
Cc1sc2nc(-c3cccs3)nc(N3CCCN(C)CC3)c2c1C	-4%	i	8%	-4%	-1%	i	i	-0.3%[57.5 µM]
COC(=O)c1nnn(CC(=O)Nc2cccc(Cl)c2C)c1C(=O)OC	-2%	i	2%	2%	12%	i	i	1.9%
O=c1c2ccccc2nc(SCc2nnc(-c3ccccc3)o2)n1-c1ccccc1	-8%	/	-2%	-8%	-13%	/	/	-1.7%
O=C(NCC1CCCO1)C1CCN(S(=O)(=O)N2CCCC2)CC1 (centres undefined)	2%	i	1%	22%	-5%	i	i	-0.4%
CCCc1nc(-c2cc3ccc(C)cc3[nH]c2=O)no1	-4%	i	-2%	6%	-4%	i	i	/
CCOC(=O)CSc1cc(C)nc(N)n1	-3%	?	0%	-7%	2%	?	i	-0.7%
CC1CCN(C(=O)CN2C(=O)C(=O)c3ccccc32)CC1	-2%	/	/	4%	4%	/	/	-0.3%
COc1ccccc1N1CCN(c2nc(C)nc3c2oc2ccccc23)CC1	16%	?	15%	-5%	-3%	i	i	-3.7%[0.369 µM]
O=C(NCCCn1ccnc1)c1ccncc1	1%	i	2%	6%	3%	i	i	0.4%
CCOC(=O)CC(=O)CSc1nc2nc(C)cc(C)n2n1	-2%	?	-2%	6%	-4%	i	i	-1.6%
O=S1(=O)CC=C(CSc2nc3ccccc3[nH]2)C1	-3%	i	0%	0%	/	i	i	-2.3%[0.369 µM]
Nc1c(C(=O)NCCN2CCOCC2)c2nc3ccccc3nc2n1CCc1ccccc1F	-4%	?	-2%	-21%	3%	i	i	1.2%[57.5 µM]
COc1ccc(C2NC(=O)NC(C)=C2C(=O)Nc2cc(C)ccc2C)cc1OC (centres undefined)	6%	/	-2%	4%	6%	/	/	-1.6%
COC(=O)c1c(N)n(-c2cc(OC)cc(OC)c2)c2nc3ccccc3nc12	-21%	?	1%	10%	-3%	?	i	-4.2%

From PubChem BioAssay
